From PubChem BioAssay
Biofilm kill mix: mixture kills Candida albicans biofilm cells. C. albicans biofilm persisters + clotrimazole, fluorescence viability; primary screen in compound mixtures of four per well. inhibition, % at 7.6 µM. hit rate 0.02% among 120,000;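 active = inhibition above 30.3% in the primary screen of four-compound pools, then above 30% when the compound was retested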;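 also: compounds exposed to preformed 24 h biofilms for 48 h; the number belongs to the whole pool; some results filed as inactive read as strong as hits; inactives centre near 12; 0% = biofilm with clotrimazole alone and 100% = kill control; retested singly at about 60 µM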
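Incubation: 24 h biofilm formation, then 48 h compound exposure, 37 °C | Material: C. albicans biofilms | Buffer or medium: RPMI/MOPS medium, pH 7.0 | Measured by: 2-h Alamar Blue fluorescence, 535/590 nm excitation/emission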
Active calls of the source: *. A portion of the library (hit frequency here may not be typical).

SMILES	Biofilm kill mix
COc1cccc(C(=O)Nc2cc3c(cc2C(C)=O)OCCO3)c1	11
CCOC(=O)c1cc(-c2ccc(C)c([N+](=O)[O-])c2)nc2c1c(=O)n(C)c(=O)n2C	13
CCC(CC)NC(=O)c1cc([N+](=O)[O-])ccc1N1CCOCC1	12
CCC(=O)Nc1nc(CC(=O)Nc2ccccc2OC)cs1	20
Cc1ccc(/C=C(\C#N)C(=O)NCC2CCCO2)o1 (centres undefined)	16
O=C(O)COCC(=O)N1CCN(C2c3ccccc3-c3ccccc32)CC1	20
CCOC(=O)c1cn(-c2ccc([N+](=O)[O-])cc2)c2cc(Cl)c([N+](=O)[O-])cc2c1=O	6
CCCCc1ccc(/C=C2/C(=O)ON=C2c2ccccc2)s1	16
Cc1ccccc1CNS(=O)(=O)c1ccccc1[N+](=O)[O-]	15
CCOc1ccc(NC(=O)C(CC(=O)O)Cc2ccccc2)cc1 (centres undefined)	12
CN(C)/C=N/c1cc(=O)[nH]c(=O)n1C	15
Cc1ccc2c(c1)C(=O)CC1(CCCC1)O2	11
CCCCC(=O)N(c1ccc(C(=O)O)cc1)c1nc(-c2ccc(Cl)cc2)c(CC)s1	8
Cc1cccc(NC(=O)c2cc([N+](=O)[O-])ccc2Cl)c1O	12
CCC(C)NC(=O)C(=O)NCC1CCCN1CC (centres undefined)	20
CCN(CC)S(=O)(=O)c1ccc(Cl)c(NC(=O)COC(=O)c2ccc(O)cc2)c1	16
Cn1cc([N+](=O)[O-])c(C(=O)NCc2ccccc2)n1	21
CCN=C1SC(C(=O)Nc2cccc(Br)c2)CC(=O)N1CC (centres undefined)	-6
Cc1ccccc1-n1c(SCC(=O)N(C)C2CCS(=O)(=O)C2)nnc1-c1ccncc1 (centres undefined)	4
CSc1nc(N)nc(C(C)C)n1	23
COc1ccc(C(=O)N/N=c2\oc3ccccc3cc2C(=O)NCc2ccccc2)cc1	-12
O=C(Nc1ccccc1)Nc1ccc2snnc2c1	18
CCCCn1nc(C(=O)Nc2ccc(S(=O)(=O)Nc3ncccn3)cc2)c2ccccc2c1=O	11
Cc1c(/C=C/C(=O)c2ccccc2O)cnn1C	8
O=C(NCc1ccccc1Cl)NC(=O)c1ccccc1	14
O=S(=O)(Nc1nc2ccccc2s1)c1cnc(Cl)c(Br)c1	4
CN(C)CCCn1c(N)c(S(=O)(=O)c2ccccc2)c2nc3ccccc3nc21	15
COc1ccc(NC(=O)Nc2ccccc2C(N)=O)cc1	18
c1ccc(CN2CCN(Cc3nnc(-c4ccccc4)o3)CC2)cc1	18
C=CCc1cccc(OC)c1OCCOCCn1ccnc1	18

Some values from the list.
O=S(=O)(Nc1nc2ccccc2s1)c1cnc(Cl)c(Br)c1 in Biofilm kill mix reads 4
Cc1ccccc1-n1c(SCC(=O)N(C)C2CCS(=O)(=O)C2)nnc1-c1ccncc1 (centres undefined) in Biofilm kill mix reads 4
CN(C)CCCn1c(N)c(S(=O)(=O)c2ccccc2)c2nc3ccccc3nc21 in Biofilm kill mix reads 15
O=C(NCc1ccccc1Cl)NC(=O)c1ccccc1 in Biofilm kill mix reads 14
CCN=C1SC(C(=O)Nc2cccc(Br)c2)CC(=O)N1CC (centres undefined) in Biofilm kill mix reads -6

(next part)
SMILES	Biofilm kill mix
Cc1cccc(C)c1NC(=S)N(CCCN1CCCCC1)Cc1ccco1	20
CCOC(=O)CNC(=O)c1ccc2[nH]c3ccccc3c2c1	8
COc1cc(/C=C(\C#N)c2ccccn2)ccc1OCC(=O)Nc1ccc(Br)cc1	18
COC(=O)c1ccccc1NC(=O)c1cc([N+](=O)[O-])nn1Cc1ccccc1	15
CCCc1cc2c(-c3ccccc3)cc(=O)oc2cc1OCc1ccc(C(=O)O)o1	-6
CCc1cccc(C)c1NC(=S)NCc1ccc2c(c1)cc(C)n2C	11
COc1cc([N+](=O)[O-])ccc1-c1ccc(/C=N/NC(=O)c2ccccc2O)o1	14
COC(=O)C(C)Sc1ccc2nnc(-c3ccccc3)n2n1 (centres undefined)	27
O=C(O)c1nccnc1C(=O)Nc1ccccc1-c1ccccc1	2
COc1ccc(C(=O)NNC(=O)c2ccc(S(=O)(=O)N3CC(C)OC(C)C3)cc2)cc1 (centres undefined)	8
COC(=O)CCC(=O)OC1(C)C(=O)C2=CN(C(CO)CO)C(c3ccc(OC)cc3)=CC2=C(Br)C1=O (centres undefined)	6
C/C(=N\Nc1ccccn1)c1ccc(N2CCOCC2)cc1	3
Nc1nc(Cl)nc(N(c2ccccc2)c2ccccc2)n1	15
COCCCNC(=O)CCCCCNS(=O)(=O)c1ccc(Br)cc1	7
CC(C(=O)N1CCOCC1)N1C(=O)C2C3C=CC(C4CC34)C2C1=O (centres undefined)	15
O=C(CNS(=O)(=O)c1c(Cl)cccc1Cl)OCc1csc(-c2ccccc2)n1	13
CCCCOc1ccccc1NC(=O)c1scc2c1OCCO2	9
Cc1ccc(/C=N/NC(=O)Cc2cccn2C)s1	12
O=C(NNC(=S)Nc1ccc(Br)cc1Cl)c1ccncc1	11
CC1=CC(=C(C#N)C#N)C=C(C)N1Cc1ccc(Cl)cc1	14
COc1ccccc1OCCC(=O)OCC(=O)Nc1ccc(S(=O)(=O)N2CCOCC2)cc1	6
CN1CCN(S(=O)(=O)c2ccc(NC(=S)NC(=O)C3CCC3)cc2)CC1	12
CC(=O)c1cn(Cc2ccccc2)c(=O)n(Cc2ccc(F)cc2)c1=O	12
Cn1c(=O)[nH]c(=O)c2c1nc(N/N=C/c1cccnc1)n2Cc1ccc(Cl)cc1	26
COc1ccc(Cl)cc1C(=O)Nc1ccc(NC(=O)C(C)C)cc1	20
Cc1ccc(S(=O)(=O)N(C)C)cc1NC(=O)c1cc(=O)[nH]c2ccccc12	10
NC(=O)c1ccc(NC(=O)COC(=O)CCC(=O)c2ccc(Cl)cc2)cc1	10
CC(=O)Oc1ccc(C(=O)Cc2ccc3ccccc3n2)c(O)c1C	7
Cc1cc[n+](-c2nc3ccccc3nc2[N-]S(=O)(=O)c2cccs2)cc1C	9
COc1ccc(C(=O)N2CCN(C(=O)Cc3ccccc3)CC2)cc1	14
Cc1cc(-c2nnc(CCC(=O)N3CCN(Cc4cccc(F)c4)CC3)o2)c(C)o1	14
O=[N+]([O-])c1cc(-c2cnc3ccccc3n2)ccc1Cl	4
CCOC(=O)c1ccc(Oc2cc(C)nc(Cl)n2)cc1	14
COc1ccc(CCNCC(O)COc2cccc(Br)c2)cc1OC (centres undefined)	4
COC(=O)c1ccccc1NC(=O)CSc1nccc(C)n1	0
COc1ccc(CCC(=O)OCC(=O)Nc2ccccc2OC(F)F)cc1OC	5
c1ccc(CNc2nc(-c3cccnc3)cs2)cc1	4
NNC(=O)c1cccc(S(=O)(=O)Nc2cc(Cl)ccc2Cl)c1	3
CC(NC(=O)c1ccc(OC2CCN(Cc3ccccn3)CC2)cc1)c1ccccc1 (centres undefined)	9
Cc1cc2nc(/C(C#N)=C/c3ccncc3)[nH]c2cc1C	11
S=C1NCCNC(=S)NCCOCCN1	19
NC(=O)c1ccc(/C=N/O)nc1	5
Cc1ccc(/C=C(\CCC(=O)O)c2nc3ccccc3s2)cc1[N+](=O)[O-]	10
COc1ccc(NC(=O)Nc2cccs2)cc1Cl	8
C=CCn1cc(C(=O)c2cc(Br)ccc2O)cc(C#N)c1=O	10

Retrieved one by one from the list above:
SMILES	Biofilm kill mix
S=C1NCCNC(=S)NCCOCCN1	19
Cc1cc2nc(/C(C#N)=C/c3ccncc3)[nH]c2cc1C	11

Remaining list, next part
SMILES	Biofilm kill mix
O=C(NCCCn1ccnc1)/C(=C\c1ccco1)NC(=O)c1ccco1	12
CCOC(=O)N1N=C(C)CC1(O)c1ccccc1 (centres undefined)	11
CC(CNC(=O)c1ccc2c(c1)OCO2)c1ccc([N+](=O)[O-])cc1 (centres undefined)	0
[O-][n+]1c2c(nc3c1-c1ccccc1C3O)CCCC2 (centres undefined)	6
COc1cc(NC(=O)c2cccc(F)c2)cc(OC)c1OC	16
COc1cc(C(=O)NCC(=O)N/N=C/c2c(C)[nH]c3ccccc23)cc(OC)c1OC	20
CCOC(=O)C1=C(CC)Nc2ccccc2N=C1NC(=O)CCN1C(=O)C2CCCCC2C1=O (centres undefined)	12
Cc1ccc([N+](=O)[O-])cc1S(=O)(=O)N1CCCC1	10
Cc1ccc(N2C(=O)C(CC(=O)Nc3cccc(F)c3)N(CCc3ccncc3)C2=O)cc1 (centres undefined)	15
S=C(c1ccc2c(c1)OCO2)N1CCOCC1	23
O=C(CCCN1C(=O)/C(=C/c2ccccc2Cl)SC1=S)NNC(=O)c1ccccc1Cl	0
O=C(Nc1ccccc1C(=O)N/N=C/c1ccncc1)c1ccccc1	19
COc1cc(OC)c(-c2nnc3n(CCc4ccccc4)c(=O)c4ccccc4n23)cc1OC	6
COc1ccc(NC2=Nc3cccc4cccc2c34)cc1	12
CCn1cc(/C=C/C(=O)Nc2ccn(Cc3c(F)c(F)c(F)c(F)c3F)n2)cn1	7
CC(C)(C)NC(=O)C(c1ccncc1)N(C(=O)Cn1nnc(-c2ccc(F)cc2)n1)c1ccccc1F (centres undefined)	13
Cc1cc(C)c(NC(=O)C(C)OC(=O)c2cc(Br)c(Br)s2)c(C)c1 (centres undefined)	17
CC(=O)OCCN(C)c1cc(SC(C)C)c2nonc2c1[N+](=O)[O-]	7
CCOC(=O)C(=CNc1ccc(-c2ccco2)c(Cl)c1)C(=O)OCC	12
O=C(COC(=O)CCc1c[nH]c2ccccc12)NC(c1ccccc1)c1ccccc1	3
CCOC(=O)C1=c2s/c(=C\c3ccncc3)c(=O)n2C(N)=C(C(=O)OC)C1c1ccncc1 (centres undefined)	12
CCC(C)NC(=O)Cc1ccc(-c2ccccc2)cc1 (centres undefined)	14
Cc1ccc(-c2nn3c(C)nnc3s2)cc1NC(=O)c1ccc(-c2ccc(Cl)cc2Cl)o1	8
O=C(Nc1ccc2cn[nH]c2c1)c1ccc(S(=O)(=O)N2CCOCC2)cc1	13
O=C(CSc1nnc(Nc2ccccc2)s1)NCc1cccs1	8
CC1CC(C)CN(C(=O)C(Cc2ccccc2)n2cccc2)C1 (centres undefined)	21
O=S(=O)(c1cccs1)N1CCN(c2ccnc3cc(Cl)ccc23)CC1	15
O=Cc1cn(Cc2ccccc2)nc1-c1cccnc1	21
Cc1ccc2nc(-c3ccc(NS(=O)(=O)c4ccccc4)cc3)sc2c1	16
O=C(Cn1c(-c2ccccc2)noc1=O)N1CCC(Cc2ccccc2)CC1	15

5 successive entries out of the list so far, for reference:
SMILES	Biofilm kill mix
O=C(CSc1nnc(Nc2ccccc2)s1)NCc1cccs1	8
CC1CC(C)CN(C(=O)C(Cc2ccccc2)n2cccc2)C1 (centres undefined)	21
O=S(=O)(c1cccs1)N1CCN(c2ccnc3cc(Cl)ccc23)CC1	15
O=Cc1cn(Cc2ccccc2)nc1-c1cccnc1	21
Cc1ccc2nc(-c3ccc(NS(=O)(=O)c4ccccc4)cc3)sc2c1	16

Some of these compounds in order of length of the SMILES, rising:
SMILES	Biofilm kill mix
O=Cc1cn(Cc2ccccc2)nc1-c1cccnc1	21
CCC(C)NC(=O)Cc1ccc(-c2ccccc2)cc1 (centres undefined)	14
CCOC(=O)C(=CNc1ccc(-c2ccco2)c(Cl)c1)C(=O)OCC	12
Cc1ccc2nc(-c3ccc(NS(=O)(=O)c4ccccc4)cc3)sc2c1	16
O=C(COC(=O)CCc1c[nH]c2ccccc12)NC(c1ccccc1)c1ccccc1	3
Cc1ccc(-c2nn3c(C)nnc3s2)cc1NC(=O)c1ccc(-c2ccc(Cl)cc2Cl)o1	8

Going on with the list.
SMILES	Biofilm kill mix
C/C(=N/O)c1ccc(N2C(=O)C3C4C=CC(C3C2=O)C2C3C(=O)N(c5ccc(/C(C)=N/O)cc5)C(=O)C3C42)cc1 (centres undefined)	-5
O=C(CSc1ncnc2scc(-c3ccccc3)c12)N1CCN(Cc2ccc3c(c2)OCO3)CC1	25
CCN(c1ccccc1)S(=O)(=O)c1ccc(Cl)c(NC(=O)COC(=O)C2CC2C)c1 (centres undefined)	4
CCc1ccc(CNC(=O)CCc2nnc(CCc3ccc(OC)cc3)o2)nc1	0
O=C(CN1CCCCC1CO)c1ccc(OC(F)F)cc1 (centres undefined)	14
CSc1nc(=O)n2cc(C)ccc2n1	9
C/C(=N\NC(=O)c1cccc(S(=O)(=O)Nc2cccc(Cl)c2)c1)c1cccs1	-3
C=CCSc1cc(C)nc2c(-c3ccccc3)c(C)nn12	7
O=[N+]([O-])c1ccc(-c2nn(-c3ccccc3)cc2/C=N/n2c(-c3cccs3)n[nH]c2=S)cc1	9
CC(C)(C)C1CCC2(CC1)NC(=S)N(c1ccccc1)N2 (centres undefined)	23
O=c1cc(-c2ccccc2Cl)oc2c(NS(=O)(=O)c3cccc4nsnc34)ccc(O)c12	10
Cc1cccc(NC(=O)c2nc[nH]c2C(=O)N[C@@H](C)C(=O)OC(C)(C)C)c1	13
O=C(NCc1ccco1)C(=O)c1cn(CC(=O)N2CCCC2)c2ccccc12	10
Cc1cc(=O)n(-c2ccccc2Cl)[nH]1	12
Cc1ccc(C(CC(=O)c2ccc(Cl)cc2)C(=O)O)cc1 (centres undefined)	9
Cc1cc(C)cc(OCC(=O)OC/C(O)=C(\C#N)c2nc3ccccc3[nH]2)c1	-5
Cc1cc2ncn(CC3CC3(Cl)Cl)c2cc1C (centres undefined)	10
COc1ccccc1NC(=O)N1CCN(Cc2ccc3c(c2)OCO3)CC1	17
CCOc1ccc(NC(=S)NCc2cccnc2)cc1	7
COc1ccc(Cc2nnc(N/N=C/c3ccccc3O)[nH]c2=O)cc1OC	-10
COc1ccc(S(=O)(=O)NCC2CCCN(CC(C)(C)C)C2)cc1 (centres undefined)	3
C/C(=N\NC(=O)c1ccc(Cn2cc(Br)cn2)o1)c1cccc(NC(=O)C(C)C)c1	8
O=C(Nc1ccc2[nH]c(=O)[nH]c2c1)C(F)(F)F	-2
C/C(=N\NC=O)c1ccncc1	-5
CC(NC(=O)Nc1ccc(Cl)c(Cl)c1)C(c1ccccc1)N1CCOCC1 (centres undefined)	13
Cc1nc2cc(NS(=O)(=O)c3c(C)c(C)cc(C)c3C)ccc2s1	7
COC(=O)c1cc(OC)nc(OC)c1	18
O=C(C[n+]1ccc(-c2nnc3n2CCC3)cc1)c1ccc(Cl)cc1	19
